Source: PubChem BioAssay
ALR inh – blocks human ALR sulfhydryl oxidase activity; P55789; inhibition, % (no concentration beside the values); purified ALR, DTT oxidation, H2O2 HRP-luminol luminescence; 290,000 compounds, 3.8% hits;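 active means mean and each replicate at 75% or more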;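 further: stock transfer was 7.5 nL into about 7.5 µL; 0% = neutral wells and 100% = wells with inactivated enzyme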
Target sequence (P55789 whole entry, looked up): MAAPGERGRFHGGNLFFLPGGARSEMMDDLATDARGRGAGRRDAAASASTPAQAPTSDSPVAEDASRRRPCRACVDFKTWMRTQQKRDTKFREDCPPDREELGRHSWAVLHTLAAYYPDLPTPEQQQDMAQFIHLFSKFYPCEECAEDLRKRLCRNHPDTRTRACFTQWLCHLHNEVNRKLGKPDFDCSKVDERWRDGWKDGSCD
Ecoli growth – E. coli growth inhibition; OD600 absorbance (test concentration not listed); 330,000 compounds, 0.21% hits; Escherichia coli growth, OD600, 23 h; active compounds read low;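 active means OD600 absorbance below the run mean of sample wells minus 3.6 SD, in any replicate, cut at about 0.56 in these data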;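 further: stock transfer was 300 nL into about 60 µL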
HNF4A DNA FP – change in binding of human HNF4 alpha to DNA | HNF4a-FITC DNA binding, fluorescence polarization, 1 h | activity change, % at 10 µM | 360,000 compounds, 0.3% hits | AID 1224865; in the data active means activity change above about 30%, passing the limit was not always enough;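 further: controls were the assay level and a saturating level of protein; the project sought stronger binding though the title names inhibitors; some compounds called inactive have numbers as strong as hits; positive values seem to mean higher polarization but the record does not say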
Target sequence (P41235 whole entry, looked up): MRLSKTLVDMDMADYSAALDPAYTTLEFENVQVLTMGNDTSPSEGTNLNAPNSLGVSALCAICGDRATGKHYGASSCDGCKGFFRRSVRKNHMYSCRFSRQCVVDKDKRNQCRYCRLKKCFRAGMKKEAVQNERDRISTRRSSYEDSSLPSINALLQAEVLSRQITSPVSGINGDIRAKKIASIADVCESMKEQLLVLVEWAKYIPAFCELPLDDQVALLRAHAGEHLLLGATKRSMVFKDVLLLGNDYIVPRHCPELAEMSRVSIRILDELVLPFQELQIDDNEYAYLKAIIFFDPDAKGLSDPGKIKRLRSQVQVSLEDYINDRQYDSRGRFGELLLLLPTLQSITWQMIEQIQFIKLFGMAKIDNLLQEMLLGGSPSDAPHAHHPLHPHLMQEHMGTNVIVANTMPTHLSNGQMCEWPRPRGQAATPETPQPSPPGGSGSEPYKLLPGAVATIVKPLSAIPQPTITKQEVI
rRNA inh HTS – inhibitors of bacterial rRNA selective over humanized ribosomes | GFP signal change (wild-type ribosome), % (concentration not given with the values) | E. coli WT GFP vs humanized-ribosome RFP mutants, fluorescence, 24 h; active compounds read low; DMSO median 0, no signal -100 | 350,000 compounds, 1.6% hits;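 active means significant combined selectivity score with lowered wild-type GFP, culture density cut under 30%, mutant RFP and density less affected; inactive means any of these conditions unmet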; further: one replicate is shown; some compounds called inactive have numbers as strong as hits
B2AR ag – activates human beta-2 adrenergic receptor causing internalization; Am2.2-beta2AR cells, FAP receptor internalization, flow cytometry; reference of the scale not given here; response, % (concentration not given with the values); 340,000 compounds, 0.43% hits; AID 504454;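 active means response above a set limit, near 3 SD of response in nonfluorescent compounds, cut at about 42% in these data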;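 further: stock transfer was 100 nL into about 11 µL; a reference agonist was the positive control; negative values mostly stem from fluorescent compounds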
FGF22 binding – binders of recombinant human FGF22 by thermal shift. Q9HCT0. SYPRO orange fluorescence; percent of sucrose octasulfate shift, DMSO zero. calls only at 9.99 µM. 340,000 compounds, 1.5% hits;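 active means melting point raised past a set limit in the mean and every replicate; three in four hits are not shown here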
Target sequence (Q9HCT0 whole entry, looked up): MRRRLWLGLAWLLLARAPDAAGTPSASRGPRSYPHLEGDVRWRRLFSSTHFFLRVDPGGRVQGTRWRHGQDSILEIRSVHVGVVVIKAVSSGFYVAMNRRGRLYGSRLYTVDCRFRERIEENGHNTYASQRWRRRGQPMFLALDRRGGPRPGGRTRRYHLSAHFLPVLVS
UCH37 inh – inhibitors of human deubiquitinating enzyme UCH37. Q9Y5K5. purified proteasome/UCH37, Ub-AMC cleavage fluorescence. inhibition, % (no concentration beside the values). 330,000 compounds, 0.33% hits;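 active means mean of two replicates above 20%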;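 further: 0% = compound-free wells with enzyme and 100% = wells lacking proteasome; stock transfer was 100 nL into about 20 µL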
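Schedule: 30 min plus 25 min, room temperature / Material: human UCH37 within purified proteasomes / Technique: AMC fluorescence intensity at 355/460 nm / Buffer or medium: pH 7.4 Tris-HCl (50 mM) with ovalbumin, ATP-MgCl2, DTT / Controls: wells without proteasome as full block, compound-free enzyme plus substrate as uninhibited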
rRNA inh HTS OD600 – also measured in rRNA inh HTS; calls as there; OD600 change, %; measured here: OD600 growth;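 optical density of the mix in the first replicate; 0 = DMSO median and -100 = no signal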
rRNA inh HTS RFP – second read-out of rRNA inh HTS, no call of its own (marks repeat the call); RFP signal change, %; measured here: RFP humanized mutant strains;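 first replicate; 0 = DMSO median and -100 = no signal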
* = called active by the depositor; i = inactive; . = not tested or not shown.

Start of the listing, in advance, 12 compounds:
SMILES | ALR inh | Ecoli growth | HNF4A DNA FP | rRNA inh HTS | rRNA inh HTS OD600 | rRNA inh HTS RFP | B2AR ag | FGF22 binding | UCH37 inh
O=C(NCCCO)C(=O)NCC(c1ccc2c(c1)OCO2)N1CCN(c2ccc(F)cc2)CC1 (stereo not drawn) | 34.7 | . | -2.8 | 5.2 | 11.8 | 1.5 | -4.5 | i | .
COc1ccc(NC(=O)CSc2cn[nH]n2)c(OC)c1 | -7.0 | 0.71 | 0.4 | 3.5 | 4.4 | 1.2 | 0.5 | i | 0.7
Cc1ccc(Nc2nnc(SCC(=O)NC3CCCc4ccccc43)s2)cc1 (stereo not drawn) | . | 0.625 | 0.1 | . | . | . | -6.0 | . | 1.5
CC(C)NC(=O)C1(C)CN(S(C)(=O)=O)CC(=O)N1CC(F)(F)F (stereo not drawn) | . | . | -2.3 | 15.2 | 20.1 | 3.7 | . | i | .
CCn1c(SCc2nc(N)nc(N3CCCCC3)n2)nc2c1c(=O)n(C)c(=O)n2C | -4.9 | 0.71 | 1.4 | . | . | . | -9.4 | . | 0.5
Cc1cc(NC(=O)COc2ccccc2C)ccc1NC(=O)c1cccs1 | 0.3 | 0.657 | 4.7 | -3.6 | -4.9 | -2.2 | -30.1 | i | 0.8
Cc1ccccc1NC(=O)CSc1ccc(-c2ccco2)nn1 | -30.3 | 0.679 | -1.1 | . | . | . | -5.1 | . | 1.1
CS(=O)(=O)N1CCN(c2ccc(NC(=O)c3ccc([N+](=O)[O-])o3)cc2)CC1 | . | . | -1.5 | 14.2 | 21.9 | -1.3 | 11.2 | i | .
CCOC(=O)c1c(C)[nH]c(C(=O)OCC(=O)NCc2ccc(OC)c(OC)c2)c1C | -3.9 | 0.698 | -2.6 | 3.0 | 10.0 | 3.2 | 9.0 | i | 1.0
[N-]=C=C1C(=S)NC(=O)[C@H]([n+]2ccccc2)[C@H]1c1ccc(Cl)cc1 | 8.1 | . | 3.5 | 2.3 | -0.7 | 2.1 | -1.5 | i | .
COc1ccc(C/C(C)=N/Nc2nc(C)cc(=O)[nH]2)cc1 | 1.8 | . | -1.2 | 4.3 | 3.2 | -4.8 | -2.9 | i | .
CSC(=S)NN=C(C)c1cccc(C)n1 | . | . | 1.4 | -4.9 | -42.2 | 0.2 | 2.3 | i | .

All compounds of this part, from the start:
SMILES | ALR inh | Ecoli growth | HNF4A DNA FP | rRNA inh HTS | rRNA inh HTS OD600 | rRNA inh HTS RFP | B2AR ag | FGF22 binding | UCH37 inh
O=C(NCCCO)C(=O)NCC(c1ccc2c(c1)OCO2)N1CCN(c2ccc(F)cc2)CC1 (stereo not drawn) | 34.7 | . | -2.8 | 5.2 | 11.8 | 1.5 | -4.5 | i | .
COc1ccc(NC(=O)CSc2cn[nH]n2)c(OC)c1 | -7.0 | 0.71 | 0.4 | 3.5 | 4.4 | 1.2 | 0.5 | i | 0.7
Cc1ccc(Nc2nnc(SCC(=O)NC3CCCc4ccccc43)s2)cc1 (stereo not drawn) | . | 0.625 | 0.1 | . | . | . | -6.0 | . | 1.5
CC(C)NC(=O)C1(C)CN(S(C)(=O)=O)CC(=O)N1CC(F)(F)F (stereo not drawn) | . | . | -2.3 | 15.2 | 20.1 | 3.7 | . | i | .
CCn1c(SCc2nc(N)nc(N3CCCCC3)n2)nc2c1c(=O)n(C)c(=O)n2C | -4.9 | 0.71 | 1.4 | . | . | . | -9.4 | . | 0.5
Cc1cc(NC(=O)COc2ccccc2C)ccc1NC(=O)c1cccs1 | 0.3 | 0.657 | 4.7 | -3.6 | -4.9 | -2.2 | -30.1 | i | 0.8
Cc1ccccc1NC(=O)CSc1ccc(-c2ccco2)nn1 | -30.3 | 0.679 | -1.1 | . | . | . | -5.1 | . | 1.1
CS(=O)(=O)N1CCN(c2ccc(NC(=O)c3ccc([N+](=O)[O-])o3)cc2)CC1 | . | . | -1.5 | 14.2 | 21.9 | -1.3 | 11.2 | i | .
CCOC(=O)c1c(C)[nH]c(C(=O)OCC(=O)NCc2ccc(OC)c(OC)c2)c1C | -3.9 | 0.698 | -2.6 | 3.0 | 10.0 | 3.2 | 9.0 | i | 1.0
[N-]=C=C1C(=S)NC(=O)[C@H]([n+]2ccccc2)[C@H]1c1ccc(Cl)cc1 | 8.1 | . | 3.5 | 2.3 | -0.7 | 2.1 | -1.5 | i | .
COc1ccc(C/C(C)=N/Nc2nc(C)cc(=O)[nH]2)cc1 | 1.8 | . | -1.2 | 4.3 | 3.2 | -4.8 | -2.9 | i | .
CSC(=S)NN=C(C)c1cccc(C)n1 | . | . | 1.4 | -4.9 | -42.2 | 0.2 | 2.3 | i | .
O=C(N/N=C/c1ccncc1)c1nc(-c2ccccc2)n2c1CCCCC2 | -16.9 | . | -5.0 | . | . | . | 1.4 | . | .
Cn1c(CNc2ccc(Cl)cc2)nnc1SCC#N | . | 0.729 | 3.1 | 1.2 | 4.4 | 1.1 | -6.7 | i | 3.5
CCc1ccc(C2CC(c3ccc(C)cc3)n3nc(N)nc3N2)cc1 (stereo not drawn) | . | 0.751 | 2.4 | 5.1 | 13.4 | -1.5 | 2.4 | i | -0.2
O=C1Nc2ccccc2N(O)N1c1ccc(S(=O)(=O)N2CCOCC2)cc1 | -13.0 | 0.657 | 2.2 | 19.1 | 14.5 | -0.1 | -2.6 | i | 3.8
CCOC(=O)CC(NC(=O)c1ccco1)c1ccccc1Cl (stereo not drawn) | 0.7 | 0.689 | 1.4 | . | . | . | 2.5 | . | 0.1
Cc1c(NS(=O)(=O)c2ccc(NCCN3CCOCC3)c([N+](=O)[O-])c2)c(=O)n(-c2ccccc2)n1C | -10.4 | 0.673 | -3.5 | 19.3 | 12.2 | 0.2 | -7.9 | i | 5.1
Nc1nc(NCC2CCCO2)nc(Nc2ccccc2)c1[N+](=O)[O-] (stereo not drawn) | 2.6 | 0.697 | -3.6 | 15.4 | 7.3 | -2.7 | -7.7 | i | 5.9
Cc1cc(=O)oc(C)c1C(=O)Nc1ccc2nsnc2c1 | -48.1 | 0.717 | 0.8 | . | . | . | 0.5 | . | -10.3
CC(=O)c1ccc(S(=O)(=O)NC2CC(=O)N(c3ccc(Cl)cc3)C2)cc1 (stereo not drawn) | -4.0 | 0.657 | -1.5 | -6.9 | -4.8 | -0.5 | -5.6 | . | 4.5
O=[N+]([O-])c1cccc2c(N3CCOCC3)ccnc12 | -75.8 | 0.675 | -0.6 | 0.6 | -0.1 | -6.3 | 10.1 | i | 9.5
CCOC(=O)C1=C(O)C(=O)N(c2ccc(S(N)(=O)=O)cc2)C1c1ccc(OC)cc1 (stereo not drawn) | -26.0 | 0.727 | -2.4 | 12.1 | 2.6 | -2.5 | -2.1 | i | -21.4
O=C1[C@H]2[C@@H](c3ccc(F)cc3)N3C(=O)N(c4ccccc4)C(=O)[C@@]3(Cc3ccc(Cl)cc3)[C@H]2C(=O)N1C1CCCCC1 | 0.7 | 0.804 | -0.7 | 7.5 | 7.2 | -7.2 | -6.0 | i | 1.9
Cc1ccc(Cl)cc1NC(=O)CSC(N)=O | 98.2* | 0.666 | 1.6 | . | . | . | 4.6 | . | 8.1
SMILES | ALR inh | Ecoli growth | HNF4A DNA FP | rRNA inh HTS | rRNA inh HTS OD600 | rRNA inh HTS RFP | B2AR ag | FGF22 binding | UCH37 inh
Cc1ccc(C(=O)Nc2sc3c(c2C#N)CCCCC3)cc1C | . | 0.752 | -3.0 | . | . | . | -1.0 | . | -47.7
CN(CC(=O)Nc1cccc(S(=O)(=O)NC2=NCCC2)c1)Cc1cccc(F)c1 | -1.7 | 0.68 | 2.0 | 6.9 | 9.7 | 0.8 | -3.4 | i | 0.7
CC(C)CN1C(=O)C(=O)N(CC(=O)NCCCc2ccccc2)C1=O | . | . | 0.5 | 5.8 | 10.4 | 1.5 | . | i | .
COc1cccc(NC(=O)CSc2nnc(NC(=O)C3CC3)s2)c1 | -0.7 | . | 4.2 | -1.0 | 1.9 | 2.5 | -11.5 | i | .
CC1=C(C(=O)OC2CCCCC2)C(c2cccnc2)n2ncnc2N1 (stereo not drawn) | 3.7 | 0.661 | 0.6 | -8.9 | -7.5 | -1.2 | -2.2 | i | 1.8
Cc1ccc(-n2nnnc2SCC(N)=O)c(C)c1 | 0.1 | 0.637 | -0.8 | . | . | . | -1.4 | . | 3.0
Clc1ccc(OCCCN2CCCCC2)c(Br)c1 | -2.5 | 0.63 | -1.5 | -20.6 | -14.6 | -2.3 | 12.3 | i | 1.5
CCC(C)(CN(C)C)OC(=O)c1ccccc1 (stereo not drawn) | 0.4 | 0.649 | 1.0 | 3.4 | 6.2 | -0.6 | -7.7 | i | 2.2
O=C(NCCS(=O)(=O)N1CCC2(CC1)OCCO2)c1ccc(F)cc1 | -5.0 | 0.71 | 2.0 | -18.6 | -21.2 | 1.0 | -1.8 | i | 3.5
O=C(C1CCC(=O)N(C2CC2)C1)N1CCN(c2ccc(Cl)cc2)CC1 (stereo not drawn) | 96.7* | 0.686 | 5.0 | 7.8 | 6.2 | 0.2 | -6.3 | i | 3.0
Cc1ccc(C)c2[nH]c(=O)c(CN(CCN3CCCC3)C(=O)Nc3ccc(F)cc3)cc12 | -10.3 | 0.692 | -0.2 | . | . | . | 3.8 | . | -3.2
O=C(CC1C(=O)NC2CCCCC2N1C(=O)c1ccc(F)cc1)Nc1ccccc1 (stereo not drawn) | 1.5 | 0.723 | 3.3 | . | . | . | 15.6 | . | 1.5
CCOc1cccc(OCCCCn2ccnc2)c1 | 4.1 | 0.641 | -0.1 | . | . | . | 3.6 | . | 4.0
COC(=O)c1ccc(NC(=O)Cn2cnc3c(nnn3-c3cccc(OC)c3)c2=O)cc1 | . | 0.651 | 3.1 | 3.0 | 15.5 | -5.6 | -10.9 | i | 2.2
COc1ccc(C2NC(=O)c3ccccc3O2)cc1 (stereo not drawn) | -8.0 | 0.665 | 3.1 | 3.5 | 4.1 | 0.9 | -4.5 | i | 3.0
Cc1cc(C2CCCCC2)n(O)c(=O)c1 | -10.6 | . | 3.8 | . | . | . | 18.9 | i | 0.4
COc1ccc(Nc2nc(NCc3cccs3)nc3ccsc23)cc1OC | . | . | -3.0 | -46.0 | -67.3 | -10.6 | . | i | .
Nc1ccc2oc(=O)c(-c3ccccc3)cc2c1 | 97.8* | 0.669 | -1.7 | -0.9 | -0.7 | -14.4 | -0.8 | i | 8.4
CCOC(=O)CC(NC(=O)c1ccco1)c1ccc(OC)cc1 (stereo not drawn) | -1.7 | 0.649 | -1.9 | . | . | . | 3.0 | . | 2.9
CCOc1ccc2oc(C(=O)Nc3ccc(N4CCOCC4)cc3)c(C)c2c1 | -10.9 | 0.745 | 3.4 | . | . | . | 5.9 | . | -0.4
O=C(CCCNC(=O)c1ccc(Cl)cc1)Nc1ccc(F)c(S(=O)(=O)N2CCOCC2)c1 | -2.2 | 0.671 | 2.2 | -8.5 | -4.6 | 2.8 | -7.5 | i | 3.5
O=C(N/N=C/C1C(c2ccccc2)C1(Cl)Cl)c1cccc(Cl)c1 (stereo not drawn) | . | . | -3.5 | -1.8 | 22.4 | 6.8 | -4.0 | i | .
O=C(NCc1ccccc1F)C1CCN(S(=O)(=O)c2ccccc2)CC1 | 0.2 | 0.672 | 1.7 | -5.6 | -7.6 | -1.0 | 5.8 | i | 2.6

Not all compounds are listed. The share of hits here may be higher or lower than overall.
